Screening results: PubChem, ICCB-Longwood Screening Facility, Harvard Medical School
Sa helicase inh – S. aureus DNA helicase inhibition; purified S. aureus helicase, fluorescence unwinding assay; about half of the hits fall short of the stated cut; inhibition, %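 (tested at about 80 µM)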; actives 0.05% (n = 120,000);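 active = both duplicates at 50% or more, or one of them with a favoured structure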;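 note: 0% = mean of negative control wells and 100% = mean of positive control wells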
MgrA DNA FP – S. aureus MgrA-DNA binding modulation. actives 0.13% (n = 84,000). inhibition, %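 (about 10 µg/mL by stock and volumes)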. AID 602314. fluorescence polarization;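 active = above 50% in either of two replicates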;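 note: 0% = protein plus DNA without compound and 100% = DNA alone without protein; higher means less MgrA bound to DNA so lower polarization; one replicate is shown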
* marks the source's active call; other numbers are inactive results; nt = no result given. This is a subset, so the mix of outcomes need not match the whole.

cpd	Sa helicase inh	MgrA DNA FP	Molecule
1	13	-3.3	Clc1ccc(OCCN2CCCC2)c2ccccc12
2	-5	nt	COC(=O)c1ccc(OC(=O)CCn2ccc3ccccc32)cc1
3	21	nt	Cc1oc2cc(OC(=O)N3CCOCC3)ccc2c(=O)c1-c1ccc(Br)cc1
4	39	nt	CCOC(=O)N1CCC(NC(=O)CCC(=O)N2CC(C)Oc3ccc(Cl)cc32)CC1 (stereo unspecified)
5	-7	nt	N#CCC(=O)Nc1ccc(C(=O)Nc2cccc(Cl)c2)cc1
6	10	nt	O=c1[nH]cc(S(=O)(=O)N(Cc2ccccc2)Cc2ccccc2)c(=O)[nH]1
7	19	nt	CCOC(=O)N1CCC(NC(=O)CN(C)S(=O)(=O)c2ccc3nc(C)sc3c2)CC1
8	13	-1.8	O=C(NC1CC1)c1c(O)c2cccc3c2n(c1=O)CC3
9	-13	nt	O=C(Nc1ccc(C(F)(F)F)cc1)c1cnc2ccccc2n1
10	-5	nt	CCOC(=O)C1=C(C)NC(C)=C(C(=O)OCC)C1C(=O)OCc1cn2cc(Cl)ccc2n1
11	nt	-0.4	O=C(O)Cc1noc2ccccc12
12	5	nt	O=C(OCCN1C(=O)c2ccccc2C1=O)c1ccccc1O
13	24	nt	Cn1ccsc1=NC(=O)/C=C/c1ccc2c(c1)OCO2
14	2	nt	O=C(CN1CCN(S(=O)(=O)c2cccs2)CC1)Nc1ccc(S(=O)(=O)N2CCCC2)cc1
15	3	-2.2	COc1cc2c(cc1OC)CN(Cc1cccs1)CC2
16	-4	nt	O=S(=O)(c1ccc(Sc2nnc3ccccn23)nc1)N1CCCC1
17	10	nt	Cc1ccc(CNC(=O)CS(=O)Cc2nc(-c3cccc(C)c3)oc2C)cc1 (stereo unspecified)
18	19	nt	CC1(C)CC(NC(=O)CC2CCCCC2)CC(C)(C)N1
19	nt	-1.2	N#CCSc1nnc(NC(=O)c2ccccc2)s1
20	34	nt	CCOc1ccc(C(=O)OCC#N)cc1OCC
21	18	0.8	COc1ccc(NC(=O)Nc2ccc(CN3CCCCC3)cc2)cc1
22	19	3.2	COc1cccc(/C=C/C(=O)NCc2csc(-c3ccccc3)n2)c1
23	-17	nt	O=C(Sc1nc2ccccc2o1)c1cccc(Cl)c1
24	-6	nt	Cc1ccc(N2C(=O)c3n[nH]c(C)c3C2c2cccnc2)cc1 (stereo unspecified)
25	9	-2.6	Cc1cc2c(cc1C)NC(CC(=O)Nc1ccccc1C)C(=O)N2 (stereo unspecified)
26	9	nt	O=C(NC1CCCCC1)C(Cc1ccccc1)NS(=O)(=O)c1cccs1 (stereo unspecified)
27	10	6.8	CCN(CC)/N=N/c1[nH]nc2nc(C)cc(C)c12
28	3	nt	CCOC(=O)c1cnn(-c2ccc(Cl)c(Cl)c2)c1N
29	11	0.5	CCCc1cc(C(=O)OC)c(NC(=O)CCCC(=O)O)s1
30	1	1.3	Fc1ccc(CSc2nc3ncccc3[nH]2)c(Cl)c1

From no. 28 as far as 30, copied from above:
cpd	Sa helicase inh	MgrA DNA FP	Molecule
28	3	nt	CCOC(=O)c1cnn(-c2ccc(Cl)c(Cl)c2)c1N
29	11	0.5	CCCc1cc(C(=O)OC)c(NC(=O)CCCC(=O)O)s1
30	1	1.3	Fc1ccc(CSc2nc3ncccc3[nH]2)c(Cl)c1

Some values from the results shown.
In Sa helicase inh, cpd 20 shows 34
In Sa helicase inh, cpd 12 shows 5

Continued.
cpd	Sa helicase inh	MgrA DNA FP	Molecule
31	0	3.8	COC(=O)c1c(NC(=O)CSc2nc(-c3ccco3)cc(C(F)(F)F)n2)sc2c1CCCC2
32	6	nt	c1cncc(-c2csc(Nc3nc4cc5c(cc4s3)OCO5)n2)c1
33	18	63*	CCC(C)N1C(=O)/C(=C\c2cnn(-c3ccccc3)c2)C(=O)NC1=S (stereo unspecified)
34	7	-3.5	COc1ccc(S(=O)(=O)N(C)CCO)cc1-c1nnc2c3ccccc3c(C)nn12
35	12	0.5	CCNc1sc(S(=O)(=O)CC)nc1S(=O)(=O)c1ccc(C)cc1
36	10	-8.4	CCN(CC)C(=O)c1nn(C)c(=O)c2ccccc12
37	-4	-0.6	O=C(CCC1Nc2c3ccccc3nc(=S)n2C1=O)N1CCN(c2ccccc2)CC1 (stereo unspecified)
38	-14	0.8	CCc1cccc2c(CCNC(=O)COc3ccc(F)cc3F)c(C)[nH]c12
39	19	nt	CCSC1=NCCN1C(=O)c1cccc(C(F)(F)F)c1
40	9	0.1	COC(=O)c1ccc(Oc2nc(C)cc(N)n2)cc1
41	34	nt	CCOC(=O)c1nnn2c1nc(Sc1nnc(-c3ccncc3)o1)c1ccccc12
42	-3	nt	N#C/C(=C\Nc1ccc(Br)cc1)c1nc(-c2ccccc2)cs1
43	17	nt	Cc1[nH]n(CCC#N)c(=O)c1C1=NCCCCC1
44	36	nt	NC(=O)NC(=O)COc1ccccc1Br
45	-26	nt	COc1cccc(C2=NS(=O)(=O)N(C)C(C(=O)N(C)C3CCCCC3)=C2)c1
46	nt	-0.4	CCCOC(=O)C1=C(C)NC2=C(C(=O)CC(c3ccc(OC)cc3)C2)C1c1cc(Br)c(O)c(OC)c1 (stereo unspecified)
47	nt	-1.6	N#CSCC(=O)c1ccccc1
48	18	nt	CCCS(=O)(=O)c1csc(C(=O)OC)c1NNS(=O)(=O)c1ccccc1C(F)(F)F
49	4	0.6	COCc1cc(C)nc2snc(Br)c12
50	-5	1.4	CC1(C)CC(=O)C2=C(C1)c1c(ccc3ccccc13)NC2c1ccc(Br)o1 (stereo unspecified)
51	-5	nt	CCN1C(=O)/C(=N\N2C(=O)CSC2=S)c2ccccc21
52	nt	0.7	COc1ccc(CCNC(=O)c2ccc(Cl)cc2Cl)cc1OC
53	20	nt	CC(C)(C)C(=O)O/N=C(\N)Cc1ccc(-c2csnn2)cc1
54	-5	nt	OCCN(CC(O)Cn1ccc2ccccc21)CC(O)Cn1ccc2ccccc21 (stereo unspecified)
55	-7	nt	O=C(Nc1ccccc1C(F)(F)F)C1CC2CCCC(C1)C2=O (stereo unspecified)
56	-2	6.3	N#Cc1c(C(F)(F)F)cc(-c2ccco2)nc1SCc1ccncc1
57	-4	nt	CC(C)S(=O)(=O)c1cscc1N/C=C(/C#N)C(=O)c1cccs1
58	nt	14	CC(=O)Oc1nc(-c2ccc(C(C)(C)C)cc2)n(-c2ccccc2)n1
59	-25	nt	COc1cc2c(C#N)c(OC)nc3c2c(n1)NC(C)(c1ccc(Br)cc1)N3 (stereo unspecified)
60	nt	-0.9	Cc1nc(C(F)(F)F)ccc1C(=O)NCc1nc(-c2ccc(C(F)(F)F)cc2)no1

Exported with one line to a screen: entries from further up.
[34] COc1ccc(S(=O)(=O)N(C)CCO)cc1-c1nnc2c3ccccc3c(C)nn12
[46] CCCOC(=O)C1=C(C)NC2=C(C(=O)CC(c3ccc(OC)cc3)C2)C1c1cc(Br)c(O)c(OC)c1 (stereo unspecified)
[45] COc1cccc(C2=NS(=O)(=O)N(C)C(C(=O)N(C)C3CCCCC3)=C2)c1
[53] CC(C)(C)C(=O)O/N=C(\N)Cc1ccc(-c2csnn2)cc1

assay / entry,34,46,45,53
Sa helicase inh,7,nt,-26,20
MgrA DNA FP,-3.5,-0.4,nt,nt

Later entries:
cpd	Sa helicase inh	MgrA DNA FP	Molecule
61	2	-1.1	CC(C)(CO)NC(=O)c1ccc(Cl)c(S(=O)(=O)N2CCCCC2)c1
62	-1	1.1	COc1ccc(CCn2cnc3oc(-c4ccccc4)c(-c4ccccc4)c3c2=N)cc1OC
63	nt	-0.8	O=C(O)CSCC(=O)Nc1cc(-c2ccccc2)[nH]n1
64	-37	nt	FC(F)(F)c1cccc(N2CN(CCCN3CCOCC3)CNC2=S)c1
65	19	0.6	O=C(NCc1ccncc1)c1cc(-c2ccco2)nc2ccccc12
66	-10	nt	CCN(CCN(C)C)C(=O)Cn1ncc2c1-c1cc(C)ccc1OC2
67	-3	-0.2	CCc1ccccc1NC(=O)Nc1cc(OC)cc(OC)c1
68	-17	nt	COc1ccc2c(c1)sc(=NC(=O)CSCC(=O)N1CCc3ccccc31)n2C
69	7	nt	CC(C)CCNC(=O)C1CCCCN1S(=O)(=O)c1ccc(F)cc1 (stereo unspecified)
70	nt	-0.7	CC(=O)Nc1ccccc1OCC(O)CNCc1ccc(C(F)(F)F)cc1 (stereo unspecified)
71	7	2.1	O=C(c1ccccc1)c1coc2ccccc2c1=O
72	-12	nt	Cn1c(=O)c2c(nc(Oc3cccc(/C=N/NC(=O)c4nonc4N)c3)n2C)n(C)c1=O
73	8	nt	CCS(=O)(=O)N1CCn2c(nc3ccccc32)C1
74	9	nt	Cc1ccc(C)n1-c1ccc(C(=O)OCC(=O)c2cccs2)cc1
75	9	nt	C/C(=N\OCC(=O)Nc1ccc(S(=O)(=O)N2CCOCC2)cc1)c1ccc2c(c1)OCCO2
76	-6	nt	CC(=O)N1CCc2c(sc(NC(=O)c3ccc(C#N)cc3)c2C#N)C1
77	1	-0.8	Nc1c(-c2nc(-c3ccc4c(c3)OCO4)no2)nnn1-c1cccc(C(F)(F)F)c1
78	1	0.0	O=C(C1CCCCC1)N(c1ccc(Cl)nn1)C1CCCCC1
79	12	21	CSc1cccc(NC(=S)N(C)C)c1
80	5	0.1	CNC(=O)CSCc1cc(C)cc(C)c1
81	-12	-0.2	Cc1ccc2nc(CN)[nH]c2c1
82	nt	-2.2	CCSc1nnc(-c2ccc(C)cc2)c2ccccc12
83	-13	nt	O=C(NCN1CCC(Cc2ccccc2)CC1)c1nc(-c2ccncc2)no1
84	9	0.2	CSc1ccccc1NC(=O)C1CC(c2cccc(Br)c2)=NO1 (stereo unspecified)
85	-13	nt	Cc1cccc(N2CC(c3nc4ccccc4n3C)CC2=O)c1 (stereo unspecified)
86	-20	nt	CC(=O)N1CCc2cc(S(=O)(=O)CCC(=O)Nc3ccc(C(F)(F)F)cc3)ccc21
87	-7	nt	CC(C)CCC1(C)NC(=O)N(CC(=O)c2ccc3c(c2)OCO3)C1=O (stereo unspecified)
88	-8	-4.0	O=C(Oc1ccccn1)C1COc2ccccc2O1 (stereo unspecified)
89	4	nt	CCOc1ncccc1C(=O)N1CCN(S(=O)(=O)c2ccc3c(c2)OCCO3)CC1
90	-18	2.2	COc1ccc2c(Sc3ccccc3)c(C(=O)N3CCc4ccccc43)[nH]c2c1

cpd	Sa helicase inh	MgrA DNA FP	Molecule
91	-14	nt	Cc1ncc2c(n1)-c1cc(F)ccc1SC2
92	9	3.8	O=C(CCn1nc(-c2ccc(Cl)cc2)c2ccccc2c1=O)NCC1CCCO1 (stereo unspecified)
93	7	-1.1	CSc1nnc(C2CCCN2Cc2cccnc2)n1C (stereo unspecified)
94	-7	nt	Cc1cc(C(=O)CSc2nnc(NCc3ccccc3)s2)c(C)n1C
95	3	0.4	CCOc1ccc(N=Cc2c(C(=O)O)[nH]c3ccccc23)cc1
96	4	nt	Cc1nnc2ccc(N3CCC(c4ccccc4)C3)nn12 (stereo unspecified)
97	-6	nt	NS(=O)(=O)c1ccc(N=Cc2c(O)n(Cc3ccc4c(c3)OCO4)c(=O)c3ccccc23)cc1
98	nt	-2.8	COc1ccc(NC(=S)Nc2ccc(C)c(NS(C)(=O)=O)c2)cc1
99	-32	nt	O=c1ccc(-c2ccco2)n[nH]1
100	9	nt	O=S(=O)(c1cccc(-c2nnc3n2CCCCC3)c1)N1CCCCC1
101	11	nt	O=c1ccc2ccc(OCCOc3ccc4ccc(=O)oc4c3)cc2o1
102	-15	3.0	Cc1c(CCl)cc(C(=O)O)cc1CCl
103	2	-1.0	COc1cc2c(cc1OC)CN(C(=S)Nc1ccccc1)CC2
104	-8	-1.5	CCSc1nnc(NC(=O)CCc2ccc(C)o2)s1
105	18	nt	CC(OC(=O)Cc1ccc(F)cc1)C(=O)Nc1ccc2c(c1)OCCO2 (stereo unspecified)
106	8	nt	CC(=O)NNc1nc(-c2ccccc2)cs1
107	6	-1.0	Fc1ccc(NC(=S)N2CCC3(CC2)OCCO3)c(F)c1
108	4	-4.8	COC(=O)c1c(C)oc2ccc(N(C(=O)C3CCCCC3)S(=O)(=O)c3cc(C)c(C)cc3C)cc12
109	5	nt	O=C(NCCCN1CCOCC1)C1CCC(=O)N1C1CCCCC1 (stereo unspecified)
110	nt	-0.5	Oc1cc2c(cc1C(c1ccc(C(F)(F)F)cc1)N1CCCCC1)OCO2 (stereo unspecified)
111	-25	nt	CCOC(=O)C1C(c2ccccc2)NC(=O)NC1(O)C(F)(F)F (stereo unspecified)
112	1	3.5	Nc1c(C(=O)NC2CCCCC2)nsc1C(=O)OCC(=O)NC1CCCCC1
113	5	nt	CC(=O)Nc1ccc2nc(NC(=O)CCOc3ccccc3)sc2c1
114	6	-0.7	Cc1ccc(CNC(=O)CSc2nc(NCCc3ccccc3)c3ccccc3n2)cc1
115	-14	nt	Cc1cc(C)c(C#N)c(SCC(=O)N(C)C2(C#N)CCCCC2)n1
116	-6	nt	CCC(=O)N(c1nnc(SCCCn2c(=O)c3c(ncn3C)n(C)c2=O)s1)C1CC1
117	8	0.6	Cc1cc2c(c(=O)n1CC1CCCO1)C(c1cccs1)C(C#N)=C(N)O2 (stereo unspecified)
118	12	-2.9	NC1=NC(=O)/C(=C/c2ccc(O)c(Br)c2)S1
119	-22	nt	CCN1CCCC1CNCC(O)COCC1CCCO1 (stereo unspecified)
120	5	2.0	CN1C(=O)C(O)(C2OC(C)(C)CCC2=O)c2ccccc21 (stereo unspecified)
121	0	-0.5	O=C(NCC1CCN(c2ccc(S(=O)(=O)N3CCOCC3)cc2)CC1)Nc1cccc(F)c1
122	16	nt	CCOC(=O)N1CCC(NC(=O)c2c(C)nn(-c3ccc(F)cc3)c2-n2cccc2)CC1

Record cards, from the list above. Order of values: Sa helicase inh	MgrA DNA FP
Entry for CCSc1nnc(NC(=O)CCc2ccc(C)o2)s1 = -8	-1.5
Entry for CC(=O)N1CCc2c(sc(NC(=O)c3ccc(C#N)cc3)c2C#N)C1 = -6	nt
Entry for Cn1ccsc1=NC(=O)/C=C/c1ccc2c(c1)OCO2 = 24	nt
Entry for O=S(=O)(c1cccc(-c2nnc3n2CCCCC3)c1)N1CCCCC1 = 9	nt
Entry for O=C(Sc1nc2ccccc2o1)c1cccc(Cl)c1 = -17	nt
